HCMV NEC inh: cytomegalovirus nuclear egress complex inhibition; HTRF UL50-UL53 interaction, normalized percent inhibition; inhibition, % (concentration not given with the values); hit rate 0.15% among 190,000;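 active = both replicates at 50% or more, plus weaker picks with an unusually low signal ratio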;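 also: stock transfer was 100 nL into about 20 µL; 0% = negative control wells and 100% = wells with untagged competitor protein; inactives centre near -12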
GIV-Gai inh: blocks GIV peptide binding to rat Galpha-i3 | P08753 | Galpha-i3/FITC-GIV peptide fluorescence polarization, 90 min; hits give low values; scaled: aluminum fluoride 0%, vehicle 100% | percent of control (FP), % (concentration not given with the values) | hit rate 0.42% among 210,000 | AID 1224905;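 active = replicate mean at 85% of control or lower, very high polarization wells dropped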;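 also: wells of about 15 µL received 100 nL stock; the first replicate is given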
Target sequence (P08753 whole entry, looked up): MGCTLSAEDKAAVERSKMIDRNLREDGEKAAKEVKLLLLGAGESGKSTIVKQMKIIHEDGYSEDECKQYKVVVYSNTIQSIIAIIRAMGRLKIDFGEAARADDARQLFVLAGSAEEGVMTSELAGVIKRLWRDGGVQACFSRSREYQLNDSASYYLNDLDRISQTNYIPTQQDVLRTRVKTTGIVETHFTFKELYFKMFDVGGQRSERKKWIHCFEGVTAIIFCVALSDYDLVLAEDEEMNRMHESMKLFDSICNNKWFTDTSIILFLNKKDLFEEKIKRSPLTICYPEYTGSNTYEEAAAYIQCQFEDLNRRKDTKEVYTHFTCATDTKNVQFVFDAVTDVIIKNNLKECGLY
Sa growth 42C: blocks Staphylococcus aureus growth. S. aureus RN4220 growth, OD600, 20 h, 42 °C; hits give low values. relative growth, % (concentration not given with the values). hit rate 0.53% among 170,000. AID 720641;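 active = growth at 42 °C up to 50% and 20 or more points under that at 30 °C, or under 10% at both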;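 also: 300 nL library stock went into each well; scaled to the means of positive and negative controls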
Sa growth 42C second temp: recorded beside Sa growth 42C, whose call it bears; relative growth, %; measured here: growth at 30 °C;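 optical density after 20 h as mean of two plates; 100% = untreated growth and lower means inhibition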
An asterisk follows results filed as active; / = not tested or not shown; & = joins results of further samples.

Preview:
SMILES | HCMV NEC inh | GIV-Gai inh | Sa growth 42C | Sa growth 42C second temp
CSc1ccccc1NC(=O)CN1CCCC1 | 2 | / | 90 | 94
COc1cc2c(cc1OC)C(c1ccc(F)cc1)N(c1ccccc1)C(=O)C2 (stereo unspecified) | -5&-3 | 100&105 | 101 | 88
Cc1ccccc1CNC(=O)c1oc2c(c1C)-c1nn(Cc3ccc(Cl)cc3)cc1CC2 | -20 | 101 | 105 | 87
C/C(=N\OCC(=O)O)c1ccc(Br)s1 | -17 | / | 108 | 95
COc1ccc(C)cc1NC(=O)CCc1c(C)nn(-c2ccc(N3CCCCC3)nn2)c1C | / | 96 | 86 | 89
COc1cccc2c1c(NS(=O)(=O)c1cc(Cl)sc1Cl)nn2C | -13 | 99 | 83 | 85
COCCNC(=O)c1cc(-c2ccncc2)nc2ccc(S(=O)(=O)N3CCOCC3)cc12 | -66 | 105 | 106 | 95

The whole of this part, from the start:
SMILES | HCMV NEC inh | GIV-Gai inh | Sa growth 42C | Sa growth 42C second temp
CSc1ccccc1NC(=O)CN1CCCC1 | 2 | / | 90 | 94
COc1cc2c(cc1OC)C(c1ccc(F)cc1)N(c1ccccc1)C(=O)C2 (stereo unspecified) | -5&-3 | 100&105 | 101 | 88
Cc1ccccc1CNC(=O)c1oc2c(c1C)-c1nn(Cc3ccc(Cl)cc3)cc1CC2 | -20 | 101 | 105 | 87
C/C(=N\OCC(=O)O)c1ccc(Br)s1 | -17 | / | 108 | 95
COc1ccc(C)cc1NC(=O)CCc1c(C)nn(-c2ccc(N3CCCCC3)nn2)c1C | / | 96 | 86 | 89
COc1cccc2c1c(NS(=O)(=O)c1cc(Cl)sc1Cl)nn2C | -13 | 99 | 83 | 85
COCCNC(=O)c1cc(-c2ccncc2)nc2ccc(S(=O)(=O)N3CCOCC3)cc12 | -66 | 105 | 106 | 95
CC1(C)CC(=O)C(C=NCc2ccc(F)cc2)=C(O)C1 | / | 104 | 113 | 77
CCN(Cc1ccncc1)S(=O)(=O)c1cc(C(C)(C)C)ccc1C | -10 | / | 78 | 89
O=C(c1ccco1)c1cn(CC(=O)N2CCc3ccccc3C2)c2ccccc12 | 8 | 107 | 91 | 80
CCCC1c2ccc(C)n2CCN1C(=O)Nc1ccccc1Cl (stereo unspecified) | -25 | 113 | / | /
Fc1ccc(-c2csc(-c3nc(-c4ccc(Br)s4)cs3)n2)cc1 | 3 | 101 | 83 | 88
Cc1ccc(-c2cc(C(F)(F)F)c3c(N)c(C(=O)c4ccc5c(c4)OCO5)sc3n2)o1 | -33 | / | 84 | 85
O=C(OCC1CCCO1)c1ccc2c(c1)N(Cc1ccc(F)cc1)C(=O)c1ccccc1S2(=O)=O (stereo unspecified) | 7 | 105&99 | 100 | 91
CCOc1cccc(/C=N/NC(=O)c2[nH]nc(-c3ccccc3)c2C)c1O | -22 | 102 | 92 | 97
COc1ccc(Nc2ncnc3c2nc2n3CCCCC2)cc1 | / | 102 | 115 | 87
O=C1CCCN2N=C(SCc3ccccc3F)SC2=N1 | / | 103 | 112 | 72
N#Cc1ccccc1NC(=O)CSc1ccccn1 | 7 | 102 | 98 | 93
O=C1CCCN1CN1CCN(CN2CCCC2=O)CC1 | 13 | 102 | 107 | 101
COc1ccc(OC(=O)c2cc3ccccc3o2)cc1 | / | 100 | 105 | 88
CCN1CCN(CCNC(=O)CCCn2nc(C)c3nn(-c4ccccc4)c(-n4cccc4)c3c2=O)CC1 | -11 | 103 | / | /
O=C(NCc1ccncc1)c1cc2n(n1)C(C(F)(F)F)CC(c1ccco1)N2 (stereo unspecified) | / | 109 | 107 | 85
Cc1c(CC(=O)N2CCCCC2)c(=O)oc2c(C)c3occ(C(C)(C)C)c3cc12 | -21 | 106 | 103 | 90
CCCN(CCC)C(=O)c1ccc2c(c1)N(Cc1ccccc1C)C(=O)c1ccccc1S2=O (stereo unspecified) | / | 103 | 135 | 90
CCOC(=O)CC1=CSC2=NCCN12 | -7 | 104 | 99 | 89
COc1ccc(N2CCN(S(=O)(=O)c3ccc(F)c(C(=O)Nc4ccccc4Cl)c3)CC2)cc1 | / | 102 | 149 | 75
Cc1ccc(NC(=O)CN(C)C(=O)Cc2c[nH]c3ccccc23)cc1 | 4 | / | 99 | 89
COCCN(CCOC)C(=O)c1sc2nc(-c3ccccc3)cn2c1C | -34 | 101 | / | /
Brc1ccccc1-c1nc2ccccc2c2nc3ccccc3n12 | / | 103 | 111 | 97
CC(=O)NCc1ccc(C(=O)COC(=O)/C=C/c2cccs2)o1 | -87 | / | 76 | 62
Clc1ccccc1CNCc1ccncc1 | / | 102 | 103 | 76
CN(C)c1ccc(C(=O)NCc2ccc3c(c2)CCO3)cc1 | -9 | 115 | 110 | 99
CCN1CCN(CCCNC(=O)C2CCN(c3nc4ccccc4n3Cc3ccc(F)cc3)CC2)CC1 | 6 | 106 | 99 | 86
O=C(NC1CCCCC1)c1ccc2c(c1)N(Cc1ccccc1F)C(=O)c1ccccc1S2 | / | 105 | 119 | 93
CCN(C(=O)c1cc2cc(Br)cc(OC)c2oc1=O)c1ccccc1 | -24 | 103 | 105 | 78
COc1ccc(N(CC(=O)NC(C)c2ccccc2)S(=O)(=O)c2c(C)nn(C)c2C)cc1 (stereo unspecified) | 2 | 101 | 104 | 89
CCCn1nc(C(=O)N(C)Cc2cccs2)c2ccccc2c1=O | -10 | / | 89 | 95
Cc1nc2ccc(Cl)cc2c(-c2ccccc2)c1C(=O)N1CCOCC1 | 6 | / | 103 | 98
O=C(N1CCCCC1)N1CCN(S(=O)(=O)N2CCCCC2)CC1 | 10 | 100 | 89 | 103
CC(C)(C)OC(=O)N1CC=C2C(C1)C(c1cccc(F)c1)C(C#N)=C(N)C2(C#N)C#N (stereo unspecified) | -21 | 98 | 100 | 77
Cc1cc(C)c(C#N)c(SCCN2CCCCC2)n1 | -9 | / | 110 | 88
Cc1ccc(S(=O)(=O)N2CCOCC2)cc1C(=O)OCc1nc2ccc(Cl)cc2n1CCO | -25 | / | 98 | 98
Cc1oc(-c2ccc3c(c2)OCCO3)cc1C(=O)NCC(=O)O | -21 | 103 | 91 | 71
COc1ccc(C)cc1Nc1nnc(C)c(=O)[nH]1 | -5 | 107 | 92 | 92
O=C(COc1ccccc1-c1nc(-c2ccccc2Cl)no1)NC1CCCCC1 | 6 | 103 | / | /
COc1ccc(CNCCN(C)C)cc1OC | 0 | 99 | 141 | 88
C=CCc1ccccc1OCCSc1nc(-c2ccc(C(C)(C)C)cc2)nc2cc(=O)[nH]n12 | / | 100 | 118 | 97
CCOC(=O)c1c(-c2ccccc2)c2cc(Cl)ccc2[nH]c1=O | / | 106 | 108 | 82
Cc1ccc(-c2nnc3ccccc3c2C(=O)Nc2ccc3c(c2)OCCO3)cc1 | 16 | 101 | / | /
Nc1ccc(S(=O)(=O)N2CCCC2)cc1Cl | -13 | / | 87 | 95
CCCC(=O)N(Cc1nc2nc(C)cc(C)n2n1)c1ccccc1Cl | -25 | 105 | / | /
CS/C(=C/C(=O)c1cccs1)Nc1ccccc1Cl | -1 | 103 | 68 | 80
CN(C)CCNC(=O)c1ccc(S(=O)(=O)N2CCCCC2)cc1 | -17 | 100 | 94 | 86
O=S(=O)(Nc1ccc2c(c1)OCO2)c1ccc(F)cc1 | -20 | 96 | 79 | 82
COc1ccc(C(=O)Nc2nnc(CCS(=O)(=O)c3ccc(C)cc3)s2)cc1OC | -7 | 106 | / | /
Cc1nn(-c2ccc(F)cc2)c(Cl)c1C(=O)OCC#N | -22 | / | 68 | 94

Next compounds follow:
Letters – A = HCMV NEC inh; B = GIV-Gai inh; C = Sa growth 42C; D = Sa growth 42C second temp
> O=C(CSc1c2c(nc3ccccc13)CCCC2)NCc1ccco1
  A: / | B: 105 | C: 103 | D: 85
> CNC(=O)COC(=O)c1ccccc1Oc1ccccc1
  A: -8 | B: / | C: 108 | D: 93
> O=C1NC2(CCCCC2)C(=O)N1Cc1nnc(-c2ccccc2)o1
  A: -20 | B: / | C: 88 | D: 88
> CCCCc1nnc(NC(=O)CCN2C(=O)/C(=C\c3ccco3)SC2=S)s1
  A: -33 | B: 105 | C: 93 | D: 86
> CN(C)C(=O)CN(C#N)c1nc(Cl)nc(N(C)C)n1
  A: -1 | B: 106 | C: 102 | D: 95
> O=C(CN(C1CCCCC1)S(=O)(=O)c1ccc(F)cc1)NCC1CCCO1 (stereo unspecified)
  A: -5 | B: / | C: 99 | D: 93
> CCc1ccccc1NC(=O)CN1C(=O)CCc2cc(S(=O)(=O)N3CCCCC3)ccc21
  A: / | B: 99 | C: 85 | D: 84
> COc1ccc(C(=O)Nc2ccccc2SCc2cc(=O)n3cc(C)sc3n2)cc1OC
  A: -16 | B: 98 | C: / | D: /
> Cn1cnc(S(=O)(=O)N(Cc2ccccc2)Cc2cccs2)c1
  A: -25 | B: 102 | C: 115 | D: 88
> CCCC1(C(=O)O)NC(c2ccccc2O)C2C(=O)N(Cc3ccccc3)C(=O)C21 (stereo unspecified)
  A: 1 | B: 103 | C: 100 | D: 96
> Cn1c(CN2CCOCC2)nc2ccccc21
  A: 16 | B: 105 | C: / | D: /
> CCOc1ccc(NC(=O)CSc2nc(=O)n(Cc3ccco3)c3c2CCCC3)cc1
  A: -27 | B: 106 | C: 95 | D: 53
> CC(=O)c1cccc(NC(=O)c2ccc3c(c2)N(Cc2ccc(C)cc2)CCS3)c1
  A: -18 | B: 109 | C: 114 | D: 89
> Cc1ccnc(NC(=O)CCSc2ccccc2)c1
  A: 2 | B: 104 | C: 104 | D: 101
> CCN1CC(=O)N(C)c2cc(C(=O)O)ccc21
  A: 7 | B: 94 | C: / | D: /
> Cc1cc(C)n(CC(=O)Nc2ccccc2C)c(=O)n1
  A: -12 | B: 104 | C: 101 | D: 93
> NC(=O)CSc1nc(-c2ccccc2)nc2c1Cc1cc(Cl)ccc1O2
  A: -28 | B: 105 | C: / | D: /
> CCCCNC(=O)c1ccc2[nH]c(C)c(C)c2c1
  A: -22 | B: 102 | C: 111 | D: 91
> Cc1cc(C)cc(N2CC(c3nnc(NC(=O)c4ccco4)s3)CC2=O)c1 (stereo unspecified)
  A: -15 | B: 100 | C: 106 | D: 85
> O=C(OCCN1C(=O)c2cccc3c(N4CCOCC4)ccc(c23)C1=O)c1cccc(Cl)c1
  A: 0 | B: 165 | C: / | D: /
> Brc1cccc(-c2nnc(CN3CCc4ccccc4C3)o2)c1
  A: -35 | B: 101 | C: 88 | D: 88
> CC1CCc2c(sc3nc(CCC(=O)NC4CCCC4)[nH]c(=O)c23)C1 (stereo unspecified)
  A: -24 | B: 102 | C: / | D: /
> CCCN1C(=O)/C(=C/c2cc(Br)c(O)c(OCC)c2)NC1=S
  A: -65 | B: -83* | C: 100 | D: 89
> COc1ccc2oc(C)c(C(=O)CSc3ccccc3)c2c1
  A: / | B: 104 | C: 103 | D: 84
> CCOC(=O)c1cnc2c(ccc3ccccc32)c1NCC(C)C
  A: / | B: 104 | C: 91 | D: 75

Reformatted with each value named: 3 of the compounds above
> O=C1NC2(CCCCC2)C(=O)N1Cc1nnc(-c2ccccc2)o1
  HCMV NEC inh = -20
  GIV-Gai inh = /
  Sa growth 42C = 88
  Sa growth 42C second temp = 88

> Cc1cc(C)n(CC(=O)Nc2ccccc2C)c(=O)n1
  HCMV NEC inh = -12
  GIV-Gai inh = 104
  Sa growth 42C = 101
  Sa growth 42C second temp = 93

> Cc1ccnc(NC(=O)CCSc2ccccc2)c1
  HCMV NEC inh = 2
  GIV-Gai inh = 104
  Sa growth 42C = 104
  Sa growth 42C second temp = 101

More entries:
Letters – A = HCMV NEC inh; B = GIV-Gai inh; C = Sa growth 42C; D = Sa growth 42C second temp
> COc1cccc(-c2cc(C(=O)N3CCN(c4ccc(F)cc4)CC3)no2)c1
  A: -11 | B: 102 | C: 104 | D: 92
> COc1ccc(N2CCN(C(=O)c3[nH]c(C)c(S(=O)(=O)N4CCCC4)c3C)CC2)cc1
  A: -31 | B: 107 | C: / | D: /
> COc1ccc(C2=NN(C(=O)CNc3cccc4ccccc34)C(c3ccco3)C2)cc1 (stereo unspecified)
  A: -16 | B: / | C: 75 | D: 95
> CC(=O)N1CCOc2cc(S(=O)(=O)NCCc3cccc(C)c3)ccc21
  A: / | B: 97 | C: 116 | D: 73
> N#CNC1=NC(c2ccccc2)C2=C(N1)/C(=C\c1ccccc1)CCC2 (stereo unspecified)
  A: -16 | B: / | C: 102 | D: 95
> Cc1ccc(C(=O)N2CCN(c3ccccc3)CC2)cc1NC(=O)c1nsc2ccccc12
  A: / | B: 105 | C: 132 | D: 90
> O=C(CCCn1c(=O)oc2ccccc21)N1CCc2ccccc2C1
  A: -15 | B: / | C: 93 | D: 83
> CCCS(=O)(=O)Nc1cc2c(cc1NCc1ccccc1)n(C)c(=O)n2C
  A: -9 | B: 99 | C: 118 | D: 90
> O=C(CS(=O)(=O)c1cn(CC(=O)N2CCCC2)c2ccccc12)Nc1ccccc1
  A: -26 | B: 101 | C: 88 | D: 95

Screening results (PubChem)
